miR-21 FLuc = qHTS Assay for Modulators of miRNAs and/orActivators of miR-21; HeLa miR-21 FLuc reporter, luciferase, 48 h; Potency, µM (highest dose often 38.3 µM), inactives show top-dose reporter change, positive = more light; 340,000 tested, under 10 active; active = well fitted rising curve with a large enough effect; inconclusive = small, poorly fitted or top-dose-only effect; inactive = no such curve, though single readings can be large or run the other way;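 further: % of control where 0% means no effect; miR-21 action dims this reporter so a rising signal means less miR-21 action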
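Compounds were titrated across several concentrations (up to approximately 40 uM) and incubated 48 hours with HeLa miR-21-FLuc reporter cells (miR-21 target sequence downstream of FLuc, endogenous miR-21). Readout was firefly luciferase luminescence after lytic detection reagent.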
Rango dissoc inh = qHTS Assay for Inhibitors of RanGTP induced Rango (Ran-regulated importin-beta cargo) - Importin beta complex dissociation | Snurportin-1 (Homo sapiens) + GTP-binding nuclear protein Ran (Homo sapiens) + Importin … | Biochemical FRET Rango-importin beta, RanGTP-induced dissociation | Potency, µM (doses to about 46.1 µM), for the others: at the top dose activity change, negative = inhibition | 340,000 compounds, 0.071% hits; active means falling FRET ratio curve, often poorly fitted, with flat reads before Ran was added; inconclusive means other falling curves, or compound fluorescence or quenching; inactive means flat or rising ratio curve;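 further: potency means the concentration at half of the fitted maximal effect; % of control where 0% means no effect; nearly all actives have a fitted effect of over 45% in size; -100% = wells without RanGTP and RCC1; the record marks most hits as doubtful in a second field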
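Quantitative HTS using a FRET biosensor: 0.1 uM Rango, 0.25 uM importin beta, 0.6 uM Ran, 2 mM GTP, 0.2 uM RCC1 final, PBS with DTT, Tween-20 and BSA. Post-read taken 45 min after Ran addition.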
Rango complex inh = qHTS Assay for Inhibitors of Rango (Ran-regulated importin-beta cargo) - Importin beta complex formation; Potency, µM (top dose mostly 92.2 µM), for inactives: at the top dose inhibition of complex formation; Rango CFP/YFP FRET sensor + importin beta, 45 min; 340,000 compounds, 0.031% hits; active = rising FRET ratio curve, often small or poorly fitted; inconclusive = mostly compound fluorescence or quenching in the first reads; inactive = flat curves in all reads;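 further: potency means the concentration at half of the fitted maximal effect; 0% = DMSO wells and 100% = buffer wells lacking importin beta; nearly all actives have a fitted effect of over 15% in size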
Target sequence (Q14974 whole entry, looked up): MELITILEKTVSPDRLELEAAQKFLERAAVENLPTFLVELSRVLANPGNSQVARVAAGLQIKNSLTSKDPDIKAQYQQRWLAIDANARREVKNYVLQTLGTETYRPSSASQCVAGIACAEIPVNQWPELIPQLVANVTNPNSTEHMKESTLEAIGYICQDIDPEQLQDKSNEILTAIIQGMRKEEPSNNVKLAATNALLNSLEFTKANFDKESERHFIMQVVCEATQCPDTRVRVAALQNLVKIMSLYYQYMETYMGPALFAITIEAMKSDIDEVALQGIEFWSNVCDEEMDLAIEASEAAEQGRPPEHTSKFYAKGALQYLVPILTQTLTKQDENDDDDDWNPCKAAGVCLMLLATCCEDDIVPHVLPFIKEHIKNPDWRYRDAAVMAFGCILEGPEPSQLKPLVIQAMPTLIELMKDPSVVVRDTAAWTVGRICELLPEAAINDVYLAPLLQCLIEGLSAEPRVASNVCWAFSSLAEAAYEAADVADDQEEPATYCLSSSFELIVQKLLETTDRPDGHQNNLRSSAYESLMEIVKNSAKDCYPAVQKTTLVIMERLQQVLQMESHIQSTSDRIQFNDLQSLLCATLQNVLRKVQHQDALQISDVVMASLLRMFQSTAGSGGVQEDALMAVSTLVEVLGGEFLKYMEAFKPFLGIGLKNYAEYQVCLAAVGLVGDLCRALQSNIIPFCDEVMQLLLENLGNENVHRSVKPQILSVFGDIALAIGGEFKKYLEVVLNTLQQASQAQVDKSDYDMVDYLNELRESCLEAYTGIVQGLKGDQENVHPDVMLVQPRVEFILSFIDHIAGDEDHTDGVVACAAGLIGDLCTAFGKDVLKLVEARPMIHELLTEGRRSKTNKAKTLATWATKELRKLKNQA
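FRET biosensor (snurportin 1 IBB flanked by EYFP and cerulean), 50 nM, with compound 5 min, then 0.125 microM importin beta in PBS, 1 mM DTT, 0.02% Tween-20, 0.1% BSA. CFP/YFP ratio read after 45 min at room temperature; pre-read flags interference.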
GLA inh pH 4.5 = qHTS Assay for Inhibitors of Human alpha-Galactosidase at pH 4.5 | purified enzyme, 4-MU-alpha-Gal fluorescence, pH 4.5 | activity change, negative = inhibition, % at 105 µM | 230,000 tested, under 10 active; inconclusive = small, poorly fitted or top-dose-only inhibition, or a rising curve; inactive = flat fitted curve, though single readings scatter; no compound was filed as active;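 further: 0% = full activity with enzyme and -100% = basal without enzyme; dose as in the result columns while the protocol names 77 µM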
Numbers without * were called inactive; ? = inconclusive; · = no result given; & = joins results of further samples. This is a subset (hit frequency here may not be typical).

canonical_smiles,miR-21 FLuc,Rango dissoc inh,Rango complex inh,GLA inh pH 4.5
COc1ccccc1C(C(=O)NC1CCCCC1)N(C(=O)c1csnn1)C1CC1 (centres undefined),-1%,-10%,0.3%,·
Cc1ccc(NC(=O)COC(=O)CCc2ccc(S(=O)(=O)N3CCOCC3)cc2)c(C)c1,-1%,-17%,1.9%,-6
CCCNC(=O)c1ccc(N2CCC3(CC2)CC(c2cccc(Br)c2)=NO3)c(NC(=O)c2c(Cl)cccc2Cl)c1,·,-6%,0.0%,·
CCOC(=O)N1CC=C2C(C#N)=C(N)C(C#N)(C#N)[C@H](c3cccs3)C2C1 (some centres undefined),-5%,?,?,-7
Cc1ccc(C(=O)N2CCCC2)cc1S(=O)(=O)N1CCCCC1,-6%,10%,-2.9%,·
CC1CCN(c2ccc3nnc(CCC(=O)N4CCCCC4)n3n2)CC1,0%,-29%,3.6%,·
CCn1c(SCC(=O)Nc2ccc(C)cc2)nc2nc3c(cc2c1=O)CCCC3,-7%,0%,-0.2%,0
O=C(NCc1ccc(Cl)cc1)c1ccc(S(=O)(=O)N2CCCCC2)cc1,·,31%,0.3%,·
CCOc1ccc(S(=O)(=O)NCCCN2CCOCC2)cc1,0%,-1%,0.4%,7
COc1ccccc1-c1noc(CCC(=O)N2CCN(c3cc(C)ccc3C)CC2)n1,·,-8%,-13%,·
O=C(c1ccc(N2CCCC2=O)cc1)N1CCN(c2ccccc2)CC1,-8%,-7%,2.2%,11
CCCCN=C(NNc1ccc(Br)cc1)C(=O)OCC,-9%,-19%,?,-5
CCN(CCCNC(=O)Cn1ncc2c([nH]c3ccc(C)cc32)c1=O)Cc1ccccc1,1%&4%,-17%,4.1%,·
C=CCN(CC=C)c1nc2ccccc2nc1C(C#N)C(=O)OC(C)C (centres undefined),2%,?,?,0
OCCC1CN(Cc2ccccc2OC2CCCC2)CCN1Cc1ccsc1 (centres undefined),3%,-8%,-0.2%,0
Nc1ccc2c(c1)Cc1c(F)cccc1-2,·,-4%,5.2%,·
COc1ccc(N2CCN(C(=O)Cc3ccc(S(=O)(=O)N4CCOCC4)s3)CC2)cc1,3%,-5%,-0.7%,0
O=C(NCC1CCCO1)C1CCCN(S(=O)(=O)c2cccc(C(F)(F)F)c2)C1 (centres undefined),1%,15%,-2.9%,·
CCOC(=O)c1ccc(NC(=O)CN2C(=O)C3C4C=CC(C4)C3C2=O)cc1 (centres undefined),-3%,1%,0.2%,-9
Cc1c(Cl)cccc1Nc1ncccc1C(=O)OCC(O)CO (centres undefined),-6%,·,·,1
CCn1c(CNC(=O)c2ccccc2F)nnc1SCC(=O)NC1CCCCC1C (centres undefined),0%,10%,1.1%,-26
COc1ccc(C(=O)COC(=O)CSCc2c(C)noc2C)cc1OC,-7%,4%,-0.2%,-10
Cc1ccc(OCC(=O)Nc2ccc(C(N)=O)cc2)cc1,5%,-6%,3.3%,·
CCCNC(=O)CN1C(=O)COc2ccc(S(=O)(=O)N3CC(C)CC(C)C3)cc21 (centres undefined),-1%,3%,2.6%,·
Fc1ccc(CSc2nnc(-c3cccs3)o2)cc1,-51%,0%,0.1%,4
Cc1cccc(OCc2n[nH]c(=S)o2)c1,-3%,6%,-4.8%,1
CCOC(=O)c1sc2nc(CC(=O)OC)nc(NCc3ccco3)c2c1C,-6%,?,?,-3
CN1CCN(/C(=N\O)c2nonc2N)CC1,-2%,-11%,1.9%,6
CCN(CC)S(=O)(=O)c1cc(NS(=O)(=O)c2ccc(Cl)c(C(=O)O)c2)ccc1C,2%,7%,-1.0%,7
CCS(=O)(=O)N1CCC(C(=O)NCCc2ccc(C)cc2)CC1,-9%,-2%,-1.6%,-5
NC(Cc1c[nH]c2ccc(OCc3ccccc3)cc12)C(=O)O (centres undefined),-13%,-20%,?,·
Cc1cccc(OCCCC(=O)O)c1,-2%,-16%,-0.9%,4
CCOC(=O)C1CCCN(CC(=O)Nc2cc(C)cc(C)c2)C1 (centres undefined),-4%,-7%,-2.7%,-7
Cc1cccc(N(CC(=O)NC2CCCC2)C(=O)CNC(=O)c2ccco2)c1C,-1%,0%,-7.4%,·
COC(=O)c1c(-c2ccccc2)csc1NC(=O)C1CC=CCC1C(=O)O (centres undefined),-11%,8%,0.1%,3
O=C1CCCC(c2ccccc2)N1 (centres undefined),0%,3%,0.0%,1
CCN(CC)S(=O)(=O)c1ccc2[nH]c(=O)cc(C(=O)Nc3cccc(C(C)=O)c3)c2c1,-3%,-30%,?,-5
CCCN(CCC)CCNC(=O)C1CCCN(S(=O)(=O)c2ccc3c(c2)oc(=O)n3C)C1 (centres undefined),-1%,3%,-0.2%,5
COC(=O)C1=C(C)NC2=C(C(=O)c3ccccc32)C1c1ccc(-c2ccc(C(=O)O)cc2)o1 (centres undefined),-13%,-21%,5.2%,-13
CCn1cc(S(=O)(=O)CC(=O)Nc2ccc3c(c2)OCO3)c2ccccc21,7%,3%,-0.8%,9
O=C(c1ccccc1Cl)N1CCC(n2cccc2)CC1,1%,-1%,1.7%,-4
COCCn1c(SCC(=O)Nc2ccccc2OC)nc2ccccc2c1=O,-3%,-3%,5.1%,·
CCc1c(O)cc2n(c1=O)-c1ccc(Cl)cc1C2(C)C,-30%,-17%,8.2%,-8
O=C(NCc1ccncc1)c1cccc(Cn2cc(Br)cn2)c1,0%,3%,0.2%,-3
CCCn1c(SCC(=O)Nc2ccc(Cl)cc2F)nc(O)cc1=O,·,-8%,2.8%,·
COc1cccc(N(C(=O)Cn2nnc(-c3ccc(C)o3)n2)C(C(=O)NC2CCCC2)c2ccncc2)c1 (centres undefined),0%,5%,-4.0%,·
Cc1nnc(SCC(=O)Nc2cc(Cl)ccc2Cl)n1CC1CCCO1 (centres undefined),-5%,8%,-0.5%,·
COC(=O)C1=C(C)N(Cc2ccccc2)C(=NCC(C)C)N[C@H]1c1cccc(C(F)(F)F)c1,·,10%,-2.9%,·
CCNC(=O)CC1SC(=Nc2ccc(C)cc2)N(CC)C1=O (centres undefined),-10%,6%,-0.4%,7
COc1cccc(OCc2cc(C(=O)N(C)CCOc3ccc(C)cc3)no2)c1,-48%,10%,-2.4%,·

Profiles, looked up by structure. Values in the order: miR-21 FLuc, Rango dissoc inh, Rango complex inh, GLA inh pH 4.5
CCCNC(=O)CN1C(=O)COc2ccc(S(=O)(=O)N3CC(C)CC(C)C3)cc21 (centres undefined) across the screens: -1%, 3%, 2.6%, ·
CCNC(=O)CC1SC(=Nc2ccc(C)cc2)N(CC)C1=O (centres undefined) across the screens: -10%, 6%, -0.4%, 7
O=C(NCc1ccc(Cl)cc1)c1ccc(S(=O)(=O)N2CCCCC2)cc1 across the screens: ·, 31%, 0.3%, ·
Nc1ccc2c(c1)Cc1c(F)cccc1-2 across the screens: ·, -4%, 5.2%, ·

Remaining list, next part
canonical_smiles,miR-21 FLuc,Rango dissoc inh,Rango complex inh,GLA inh pH 4.5
O=C(CN1C(=O)c2ccccc2S1(=O)=O)N1CCCCC1,-27%,2%,5.6%,·
COc1ccc(N(C(C)C(=O)N(C)Cc2ccccc2)S(C)(=O)=O)cc1 (centres undefined),-2%,2%,-1.1%,·
O=C(NC1(C(F)(F)F)N=C2SCCN2C1=O)c1ccccc1F (centres undefined),-2%,-2%,-1.4%,1
COc1cc(OC)cc(C(=O)OCC(=O)Nc2cccc(S(=O)(=O)NC3=NCCCCC3)c2)c1,·,-8%,?,·
COc1ccccc1NS(=O)(=O)c1ccc2c(c1)NC(=O)CC(=O)N2,7%,-25%,-2.2%,·
CCOc1ccc(OCC)c(NC(=O)CSCC(=O)O)c1,-6%,5%,-5.5%,0
CCCn1c(CNC(=O)c2cccs2)nc2ccccc21,-2%,-13%,-1.3%,0
Cc1ccc(O)c(-c2cc(-c3ccccc3F)[nH]n2)c1,-40%,1%,0.2%,-3
CC(C)N(C)S(=O)(=O)c1ccc(NC(=O)CSC(=S)N2CCCC2)cc1,·,-2%,3.6%,·
CCOc1ccc(/C=N/OCC(=O)Nc2cc(C)on2)cc1,-2%,-5%,0.0%,5
O=C(CSc1ncn[nH]1)N1N=C2/C(=C\c3ccco3)CCCC2C1c1ccco1 (centres undefined),·,14%,?,·
CCN(CC(=O)Nc1c(F)cccc1F)C(=O)c1cc(-c2cccs2)nn1-c1ccccc1,·,24%,1.8%,·
O=C1c2ccccc2C(=O)N1c1ccc(S(=O)(=O)N2CCN(c3ccccc3)CC2)cc1,0%,-19%,6.1%,3
Cc1cccc2cc(C(c3nnnn3CC3CCCO3)N3CCCc4ccccc43)c(=O)[nH]c12 (centres undefined),-2%,-20%,-2.3%,-1
Cc1cccc2cc(COC(=O)c3cccnc3)c(=O)[nH]c12,-3%,28%,-2.7%,-3
CN(Cc1ccccc1)C(=O)COC(=O)CCN1C(=O)C2CC=CCC2C1=O (centres undefined),·,-3%,-0.1%,·
O=C(CN1C(=O)c2ccccc2C1=O)Nc1ccccc1F,0%,-3%,1.6%,3
O=C(N/N=C/c1cccc(F)c1)c1c(O)c2ccccc2[nH]c1=O,-1%,2%,1.6%,9
O=C(CCCn1cc([N+](=O)[O-])cn1)N1CCCCC1,-15%,1%,-2.4%,3
Cc1cccc(/C=C2/SC(=O)N(Cc3ccccc3)C2=O)n1,-3%,0%,-3.0%,4
COCCN(C(=O)CCC(=O)Nc1cccnc1)C(C(=O)NC1CCCCC1)c1ccccc1 (centres undefined),-10%,-2%,2.0%,11
COc1ccc(CNC(=O)/C=C/c2cc3c(cc2Br)OCO3)cc1,-10%,13%,0.3%,5
CCN1CCN(CCCNC(=O)C(NC(=O)C2CCC(C)CC2)C(C)C)CC1 (centres undefined),-4%,·,·,3
O=C(Nc1ccc(-c2cccc(F)c2)cc1)C1CCCN(Cc2ccccn2)C1 (centres undefined),18%,11%,3.2%,·
COC(=O)c1ccc(NC(=O)C2CCCN2S(=O)(=O)c2ccc(F)cc2)cc1 (centres undefined),-5%,0%,-5.2%,-6
Cc1occc1-c1nnc(SCC(=O)Nc2ccc(F)cc2)n1C,-6%,8%,-3.2%,·
COc1cc(Br)ccc1NC(=O)c1ccccc1-c1ccccc1C(=O)O,·,-5%,-0.2%,·
COc1ccc(CCN(Cc2cccs2)S(=O)(=O)c2ccc(S(=O)(=O)N3CCCCCC3)cc2)cc1OC,-2%,2%,0.1%,8
COc1ccc(OCC(=O)Nc2ccccc2N2CCN(C)CC2)cc1,1%,-7%,3.3%,·
COc1ccc(C2C(C(=O)Nc3cccnc3)=C(C)Nc3nc(-c4cccs4)nn32)cc1OC (centres undefined),2%,14%,0.0%,8
CCN(CC)C(=O)CSc1nc2c(sc(=S)n2-c2ccccc2)c(=O)[nH]1,-2%,1%,-0.3%,-15
CCOCc1cc(CN2CCC(n3nccc3NC(=O)C3CC3)CC2)ccc1OC,-4%,-11%,-1.2%,·
CCOC(=O)c1nn(-c2ccccc2)c(=O)c2c(N)scc12,4%,-15%,-1.6%,-4
Cc1cc(C(F)F)n2nc(C(=O)Nc3ccc(S(=O)(=O)N4CCCC4)cc3)nc2n1,-2%,12%,-1.0%,-2
COc1ccc(OC)c(Nc2nc(NCCO)c3ccccc3n2)c1,18%,1%,-1.0%,·
O=[N+]([O-])c1ccn(-c2nc(-c3ccccc3)cc(C(F)(F)F)n2)n1,-2%,7%,-0.4%,2
Cc1ccc(S(=O)(=O)N2CCN(C(=O)c3ccc(N4CCC(C)CC4)c([N+](=O)[O-])c3)CC2)cc1,·,6%,-1.2%,·
